# Screening data (PubChem BioAssay)
# Cruzain inh noDet – inhibitors of Trypanosoma cruzi cruzain without detergent; P25779; purified cruzain, Z-FR-AMC fluorescence, no detergent; Potency, µM, without a hit: max response, negative = inhibition, usual class: inhibitors; 200,000 tested, 2.3% active;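 also: plate controls were enzyme without inhibitor for no effect and buffer without enzyme for full effect; nearly all actives have a fitted effect of over 40% in size; top concentration of the series not given in the record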
# Target sequence (P25779 123-467 limits assumed): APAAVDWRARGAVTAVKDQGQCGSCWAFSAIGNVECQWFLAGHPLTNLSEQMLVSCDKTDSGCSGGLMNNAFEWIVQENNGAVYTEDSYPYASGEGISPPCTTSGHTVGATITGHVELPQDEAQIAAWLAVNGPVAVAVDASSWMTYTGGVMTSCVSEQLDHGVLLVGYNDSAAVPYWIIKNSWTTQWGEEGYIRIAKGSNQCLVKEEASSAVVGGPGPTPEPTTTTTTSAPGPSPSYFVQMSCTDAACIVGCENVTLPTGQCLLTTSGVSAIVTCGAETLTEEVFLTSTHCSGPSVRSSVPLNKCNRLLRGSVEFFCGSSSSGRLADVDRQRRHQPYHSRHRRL
#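 Detergent-free condition (0.00005% Triton X-100) in acetate buffer pH 5.5 with DTT. 1.5 nM enzyme and compound were pre-mixed 15 min, then 2 uM Z-FR-AMC substrate added; reaction progress from fluorescence change between first and third reads (60 s).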
# RE007 growth inh – less growth of the S. pombe RE007 Vpr strain; S. pombe RE007 Vpr strain, BacTiter-Glo ATP luminescence, 24 h; control for the full effect not named in the record; Potency, µM (top dose mostly 92.2 µM), for the others: at the highest dose activity change, negative = less growth; 360,000 tested, 0.21% active; active = well fitted falling curve with a large enough effect; inconclusive = small, poorly fitted or top-dose-only effect; inactive = no such curve, though single readings can be large or run the other way;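 also: % is scaled to controls: 0 for no effect and ±100 for the full control effect; nearly all actives have a fitted effect of over 50% in size; the assay follows cell death caused by Vpr and the record does not say whether a fall means rescue or toxicity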
#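 Fission yeast RE007 carrying one integrated HIV-1 vpr copy, seeded at OD 0.01 in PMG+AL medium with 23 nL pinned compound. Grown 24 h at 30 degrees; viability read by BacTiter-Glo luminescence after 5 min.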
# SARS PLP yeast – inhibitors of SARS-CoV papain-like protease in yeast; S. cerevisiae expressing SARS-CoV PLpro, growth rescue; control for the full effect not named in the record; Potency, µM (series often up to 32.9 µM), without a hit: at the highest dose activity, positive = growth rescue; 330,000 tested, 0.19% active; AID 485353; active means well fitted rising curve with a large enough effect; inconclusive means small, poorly fitted or top-dose-only effect; inactive means no such curve, though single readings can be large or run the other way; also: 0% is about no effect; nearly all actives have a fitted effect of over 55% in size; growth read by luminescence after 48 h
# Marburg entry inh – blocks Marburg virus binding to or entry into cells | Marburg virus pseudotyped entry inhibition, cell reporter; control for the full effect not named in the record; about a third of the inactives were read at about 46 µM | Potency, µM (highest dose often 37.8 µM), for inactives: top-dose activity change, negative = inhibition, actives largely listed as inhibitors | 300,000 tested, 1.8% active | AID 540276; active = well fitted inhibition curve with a large enough effect; inconclusive = small, poorly fitted or top-dose-only effect, or effect the other way; inactive = flat fitted curve, though single readings scatter; tested in HEK293 cells; about a fifth of its hits are not listed in these tables; also: % is scaled to controls: 0 for no effect and ±100 for the full control effect; luciferase read-out
# 2A StopGo – lowers the luciferase signal of an FMDV 2A StopGo reporter. Potency, µM (series often up to 57.9 µM), inactives show at the highest dose signal change, negative = less light. human cells with a luciferase reporter of 2A StopGo recoding; control for the full effect not named in the record. 410,000 tested, 1.2% active; active = well fitted falling curve with a large enough effect; inconclusive = small, poorly fitted or top-dose-only effect; inactive = no such curve, though single readings can be large or run the other way; tested in HEK293T cells; also: % is scaled to controls: 0 for no effect and ±100 for the full control effect; nearly all actives have a fitted effect of over 45% in size; luciferase light after 4 h
# NS1 function inh – influenza NS1 inhibition; S. cerevisiae slowed by influenza A NS1, growth recovery by OD600; Potency, µM (doses to about 46.1 µM), for the others: at the highest dose activity, positive = more growth; 270,000 tested, 0.4% active; active means well fitted rising curve with a large enough effect; inconclusive means small, poorly fitted or top-dose-only effect; inactive means no such curve, though single readings can be large or run the other way; also: nearly all actives have a fitted effect of over 50% in size
#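 In this qHTS, NS1 from influenza A is expressed in budding yeast, where it slows growth. Cells are switched from glucose to 2% galactose medium (pH 6.0, -URA), treated with compound, and growth recovery is read at OD600.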
# Cruzain Triton – inhibitors of Trypanosoma cruzi cruzain with detergent; 200,000 tested, 0.43% active; P25779; purified cruzain, Z-FR-AMC fluorescence, 0.01% Triton; Potency, µM, for the others: max response, negative = inhibition, hits mostly inhibitors;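 also: plate controls were neutral wells for no effect and buffer without enzyme for full effect; nearly all actives have a fitted effect of over 40% in size; top concentration of the series not given in the record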
#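 Enzyme 1.5 nM, Z-FR-AMC 2 uM, NaOAc 100 mM pH 5.5, DTT 5 mM, Triton X-100 0.01%; 15 min RT compound preincubation; kinetic ex360/em450, 60 s delta.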
# LASV entry inh – inhibitors of Lassa virus binding or cell entry; 300,000 tested, 1.2% active; Potency, µM (highest dose often 37.9 µM), for inactives: top-dose activity change, negative = inhibition, most hits filed as inhibitors; Lassa virus pseudotype entry inhibition, cell reporter; control for the full effect not named in the record; active means well fitted inhibition curve with a large enough effect; inconclusive means small, poorly fitted or top-dose-only effect, or effect the other way; inactive means flat fitted curve, though single readings scatter; tested in HEK293 cells; also: % is scaled to controls: 0 for no effect and ±100 for the full control effect; nearly all actives have a fitted effect of over 50% in size; luciferase read-out
# * hit, by the source's call; ? = inconclusive; · = not tested or not shown; & = joins results of further samples; [ ] = remark or other dose. Unless noted, calls follow the shape of the dose curve; as a rule, active = well fitted curve in the direction sought with a large enough effect; inconclusive = small, poorly fitted or top-dose-only effect, or another doubt; inactive = no such curve, though single readings can be large; an effect the other way counts as inactive or inconclusive. Potency is read from the fitted curve at half-maximal effect.
SMILES	Cruzain inh noDet	RE007 growth inh	SARS PLP yeast	Marburg entry inh	2A StopGo	NS1 function inh	Cruzain Triton	LASV entry inh
Cc1ccc(NS(=O)(=O)c2ccc(CCC(=O)NC3CC3)cc2)cc1	7%	-9%	7%	0%	30%	2%	3.4%	16%
O=C(Cn1c(=O)c2cc(Cl)ccc2n2nncc12)Nc1ccccc1	-2%	·	·	2%[46.1 µM]	-3%	·	-2.8%	-4%[46.1 µM]
O=C(Cc1ccccc1)Nc1sc2c(c1C(=O)Nc1cccc(Cl)c1)CCCCC2	2%	·	·	·	-9%	·	-2.1%	-1%[46.1 µM]
COc1ccccc1CNCC(=O)Nc1ccc(N(C)C)cc1	·	-5%	-2%	·	41%[activator]	2%	·	·
CCOc1ccccc1C(=O)NCC(=O)NCCCSc1ccccc1	·	-1%	-1%	·	-6%	-3%	·	·
COc1cc(OC)c(C(=O)NC2CCCc3ccccc32)cc1OC (stereo unspecified)	·	0%	-4%	?	3%	3%	·	?
CCC(NC(=O)C1CCC1)c1ccccc1 (stereo unspecified)	6%	32%	14%	-10%	5%	6%	1.2%	?
CCC(=O)NNC(=O)CSc1nnc(-c2ccccc2)c(-c2ccccc2)n1	·	-3%	6%	0%	-3%	2%	·	6%
CC1CCN(C(=O)NC(=O)c2ccccc2)CC1	·	-27%	-5%	·	2%	1%	·	·
O=C(NNc1c2ccccc2nc2ccccc12)C(O)c1ccccc1 (stereo unspecified)	·	12%	-3%	·	-9%	-42%	·	·
O=C(CSc1nc(=O)n2ccccc2n1)NCCc1ccccc1	·	2%	-2%	11%[46.1 µM]	1%	·	·	6%
CC(OC(=O)c1cc(Br)ccc1O)C(=O)NC1(C#N)CCCCC1 (stereo unspecified)	·	-25%	-7%	3%	12%	·	·	-19%[46.1 µM]
COc1ccccc1N=c1oc2cc(O)ccc2cc1C(=O)NCC1CCCO1 (stereo unspecified)	24%	-18%	2%	-2%	4%	-7%	-6.9%	4%
CSc1ccccc1NC(=O)C1CC(c2c(F)cccc2Cl)=NO1 (stereo unspecified)	·	-29%	-5%	·	39%[activator]	-1%	·	·
COc1ccc(C(=O)Nc2ccc(N3CCN(C)CC3)cc2)cc1OC	·	9%	5%	?	19%	-5%	·	-1%[46.1 µM]
C/C(N)=C(/C#N)C(=O)COC(=O)CC12CC3CC(CC(C3)C1)C2	21%	-7%	-21%	-6%[46.1 µM]	-22%	-16%	-4.8%	?
O=C(NCc1ccco1)C(=O)NCC1OCCN1S(=O)(=O)c1ccccc1 (stereo unspecified)	-8%	4%	-2%	?	-22%	-15%	-2.7%	9%
O=C(CSc1nnc(-c2ccccc2)c(-c2ccccc2)n1)NC1CCCCC1	-25%	·	·	·	-10%	·	-12%	0%[46.1 µM]
Nc1ccc2c(c1)Cc1cc(N)c(Br)cc1-2	·	-26%	·	?	42%[activator]	·	·	-1%
Cc1ccc(-n2c(=O)[nH]cc(C(=O)N3CCc4ccccc43)c2=O)cc1C	0%	-3%	3%	·	-11%	7%	-0.1%	·
COc1ccc(-n2c(=O)/c(=C\c3cccs3)s/c2=C(/C#N)C(=O)N2CCN(C)CC2)cc1	·	-22%	5%	5%	-5%	18%	·	-8%
CCCc1ccc2oc(C(=O)NCCc3nc(C(=O)OCC)cs3)c(C)c2c1	·	2%	-20%	?	-8%	-78%	·	-25%
COc1ccccc1N(CC(=O)NC1CCCCC1)C(=O)c1csnn1	1%	7%	-7%	2%	16%	3%	0.5%	0%
CCOC(=O)c1c(NC(=S)NNS(=O)(=O)c2ccc(Br)cc2)sc2c1CCCCC2	·	-4%	10%	-4%	0%	-24%	·	-12%
N#C/C(=N\Nc1ccc(S(=O)(=O)N2CCCCCC2)cc1)C(N)=S	·	-4%	7%	?	17%	2%	·	-4%
CCn1c(=O)cc(SCC(=O)N2CCN(Cc3ccc4c(c3)OCO4)CC2)c2ccccc21	-1%	4%	-3%	1%	40µM*	-21%	-1.0%	-19%
Cn1c2c(c(=O)n(C)c1=O)C(CC(=O)Nc1ccccc1F)C(=O)N2 (stereo unspecified)	·	1%	-2%	-15%[14.2 µM]	10%	10%	·	19%
Cc1ccc(NS(=O)(=O)c2ccc(NC(=O)N3CCCC3)cc2)cc1C	8%	·	·	·	-14%	·	0.5%	20%[46.1 µM]
CCCCCCC(C)n1[nH]c(=O)c2c(C)cc(C)nc21 (stereo unspecified)	·	6%	-1%	3%	-27%	2%	·	27%
CCCCOc1ccc(C(=O)O)cc1	7%	6%	-18%	2%	-5%	-135%	0.5%	-3%

# (further entries)
SMILES	Cruzain inh noDet	RE007 growth inh	SARS PLP yeast	Marburg entry inh	2A StopGo	NS1 function inh	Cruzain Triton	LASV entry inh
COc1ccccc1N1CCN(C2CCCN(C(=O)c3cc(C4CC4)on3)C2)CC1 (stereo unspecified)	·	1%	10%	·	-5%	0%	·	·
Cc1cc(C)nc(SCc2cc(=O)c(OC(=O)c3cccc([N+](=O)[O-])c3)co2)n1	2%	-4%	-20%	3%	-2%	0%	-11%	-1%
CN(C)S(=O)(=O)c1ccc(C(=O)Nc2ccc(CCC(=O)N3CCCC3)cc2)cc1	20%	15%	11%	23%	2%	-5%	-4.5%	17%
CCCCc1cc(=O)oc2cc(OCc3cc(OC)c(OC)c(OC)c3)c(Cl)cc12	19%	-3%	5%	?	-21%	6%	?	?
COc1ccc(F)cc1S(=O)(=O)Nc1ccc2c(c1)OCCO2	11%	-8%	5%	-2%	12%	?	-2.1%	-3%
COC(=O)c1[nH]c2ccc(Cl)cc2c1NC(=O)CCN1CCN(C2CCCCC2)CC1	-5%	1%	-5%	?	-27%	-6%	0.5%	-1%
COCCCNC(=O)CN1C(=O)COc2ccc(S(=O)(=O)N3CCCCCC3)cc21	8%	6%	-1%	18%&18%[46.1 µM]	7%&-15%	12%	0.8%	-1%[46.1 µM]
Cn1c(=O)c2c(nc(NCCCCO)n2Cc2ccccc2Cl)n(C)c1=O	8%	·	·	-27%[46.1 µM]	-12%	·	-3.5%	12%[46.1 µM]
Cc1ccc(S(=O)(=O)c2c(O)cc(C)c(NS(=O)(=O)c3ccc(Cl)cc3)c2C)cc1	?	·	·	-4%[46.1 µM]	29%	·	-3.8%	-2%[46.1 µM]
CCOP(=O)(Cc1ccc(C(C)(C)CC(C)=O)o1)OCC	·	13%	2%	·	-22%	3%	·	·
Cc1ccc(NC(=O)COC(=O)Cn2nc(-c3ccc(F)cc3)oc2=O)cc1C	·	5%	-23%	-14%	6%	·	·	?
CCOc1ccc(CNC(=O)Cn2cc3c(n2)-c2c(oc(C(=O)N4CCOCC4)c2C)CC3)cc1	?	·	·	·	-30%	·	-3.9%	-27%[46.1 µM]
COCCCNC(=S)N(Cc1ccccc1)Cc1nc2ccccc2c(=O)[nH]1	-7%	-4%	16%	-3%	32%[activator]	-11%	-5.0%	-19%
CC(C)C(=O)NNS(=O)(=O)c1ccccc1	·	1%	5%	2%[46.1 µM]	0%	·	·	-7%[46.1 µM]
CC(=O)c1ccc(NC(=O)NCCc2c[nH]c3ccccc23)cc1	-7%	·	·	27%[46.1 µM]	10%	·	-13%	-7%[46.1 µM]
O=C(COC(=O)/C=C/c1ccc(F)cc1)Nc1cc(C(F)(F)F)ccc1N1CCOCC1	-1%	5%	-9%	-13%[46.1 µM]	-13%	6%	-9.5%	11%[46.1 µM]
Brc1cc2c(cc1COc1ccc(-c3nn[nH]n3)cc1)OCO2	9%	-2%	-34%	17%	10%	-88%	-13%	2%
CCOc1ccccc1NC(=O)CSc1nnc2[nH]c(=O)cc(-c3ccccc3)n12	-1%	·	·	·	20%	·	4.4%	0%[46.1 µM]
CCOc1ccc(-n2c(SCc3nc(-c4ccccc4C)no3)nnc2-c2ccccc2)cc1	-16%	·	·	-2%[46.1 µM]	-8%	·	-2.1%	-6%[46.1 µM]
CC1CCCN(S(=O)(=O)c2ccc(Br)s2)C1 (stereo unspecified)	-4%	·	13%	7%	-13%	-4%	-4.4%	6%
c1ccc(SCCOCCn2cncn2)cc1	19%	-17%	2%	-9%[46.1 µM]	7%	-1%	1.5%	-1%
CCOC(=O)c1ccc(NC(=O)CSc2nc(=O)n(CCN3CCOCC3)c3c2CCC3)cc1	·	2%	0%	-20%	-4%	·	·	-4%[46.1 µM]
CCOC(=O)N1CCN(c2c(N3CCN(c4ccccn4)CC3)c(=O)c2=O)CC1	-8%	-1%	7%	-3%	-28%	-2%	4.3%	·
NS(=O)(=O)c1ccc(NC(=S)N2CCN(c3ccccc3Cl)CC2)cc1	-7%	5%	2%	4%	-25%	3%	-3.8%	-1%
CC(=O)c1cccc(NC(=O)CCCN2C(=O)COc3ccc(C)cc32)c1	?	·	·	19%[46.1 µM]	0%	·	18µM*	4%[46.1 µM]
CC1=NN(c2cccc(C(=O)O)c2)C(=O)/C1=C\C=C/c1ccccc1	·	-26%	-6%	?	10µM*	·	·	?
COCCCN(Cc1cccs1)S(=O)(=O)c1c[nH]c(C(=O)OC)c1	·	-9%	11%	·	23%	8%	·	·
CC1CCCN(C(=O)CCS(=O)(=O)c2ccc3c(c2)NC(=O)C(C)S3)C1 (stereo unspecified)	·	3%	8%	·	-27%	-7%	·	·
CN(C)c1ccc(C(=O)c2ccc(N(C)C)c(N)c2)cc1N	-14%	4%	-2%	-3%	4%	9%	-6.1%	?
NS(=O)(=O)c1ccc(CCNC(=O)CN2CCN(Cc3cccc4ccccc34)CC2)cc1	·	4%	1%	?	-10%	11%	·	-20%[46.1 µM]
COCCCNC(=O)Cn1cc(/C=C(\C#N)C(=O)NC2CC2)c2ccccc21	·	13%	1%	·	4%	5%	·	·
CCOC(=O)CCC(NC(=O)c1ccc(CNc2nc3cc(C(F)(F)F)ccc3nc2C(=O)OCC)cc1)C(=O)OCC (stereo unspecified)	·	-8%	·	6%	-22%	·	·	-7%
Cc1cc(=O)n2nc(N3CCCC(C(=O)NCc4ccc5c(c4)OCO5)C3)sc2n1 (stereo unspecified)	-5%	1%	4%	-1%	12%	2%	-5.8%	-5%
